# Assay outcomes from PubChem BioAssay.
# CapD inh = Bacillus anthracis CapD inhibitors, primary screen, biochemical, fluorescence intensity; z-score (concentration not given with the values); CapD gamma-glutamyltranspeptidase (Bacillus anthracis Ames Ancestor); purified CapD enzyme, fluorescence intensity read-out; stronger effect = lower value; some hits fall short of the stated cut; actives 0.23% (n = 140,000);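 active = z-score under -4 in either of two replicates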;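 note: stock transfer was 100 nL into about 40 µL; score is relative to mean and spread of the plate; one replicate is shown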
# AID504770 = growth inhibition of E. coli YBA685, primary screen, V. cholerae RctB inhibitors. E. coli YBA685 rctB-dependent plasmid, OD600 growth, 3 h; stronger effect = lower value. z-score (no concentration beside the values). actives 0.27% (n = 130,000);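 active = z-score under -2 on both plates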;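 note: wells of about 30 µL received 100 nL stock; score is relative to mean and SD of the test wells; the first replicate is given; strong numbers were not always called active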
# An asterisk follows results filed as active; . = no result given; & = joins results of further samples.
# Value order: CapD inh | AID504770
- NS(=O)(=O)c1ccc(CCNC(=O)CSc2nc3ccccc3c(=O)n2CC2CCCO2)cc1 (centres undefined)
    0.16 | .
- Cc1nc(SCc2ccc(C(=O)O)cc2)nc2c1CCCC2
    -0.025 | 0.5
- CN(C)c1ccc(CN(CC2CCCO2)S(=O)(=O)c2cccs2)cc1 (centres undefined)
    . | -0.65
- CCOc1ccc(CCOC(=O)NNC(=O)c2sccc2OCC)cc1
    -0.42 | .
- CCOCCOC(=O)C1=C(C)NC2=C(C(=O)CCC2)C1c1cc(Br)c(O)c(OCC)c1 (centres undefined)
    16 | .
- CCOc1ccc(NC(=O)c2cnn(-c3ccccc3)c2NC(=O)c2ccco2)cc1
    2.6 | 2.5
- CC1=NCC(=O)Nc2cc3c(cc21)OCCO3
    . | 1.5
- CCCCN1C(=O)N(c2nnc(C(C)(C)C)s2)C(=O)C1c1ccc(Cl)c(Cl)c1 (centres undefined)
    0.53 | 2.5
- O=C(NC1CCN(Cc2ccc(F)cc2)CC1)c1ccccc1
    0.075 | .
- CCN1CCN(c2ncc(C(=O)OC)c3ccccc23)CC1
    7.5 | -1.7
- COC(=O)c1c(C)oc2ccc(N(C(=O)c3ccccc3)S(=O)(=O)c3cccc([N+](=O)[O-])c3)cc12
    -0.26 | .
- O=C(COc1ccc2c3c(c(=O)oc2c1)CCC3)N1CCCC1
    17 | 0.3
- CC1(C)Oc2ccc(C(=O)N3CCCC3)cc2N(CC(=O)N2CCCCC2)C1=O
    . | -0.55
- O=C(COC(=O)c1cccc(N2C(=O)C3C4C=CC(C4)C3C2=O)c1)c1cccc([N+](=O)[O-])c1 (centres undefined)
    -0.93 | .
- CCN1CCc2c(sc(-n3cccc3)c2CNC(=O)Nc2cc(Cl)ccc2C(=O)OC)C1
    0.11 | -0.35
- C(SCc1nn[nH]n1)c1nn[nH]n1
    1.1 | .
- O=C(Nc1sc2c(c1C(=O)Nc1ccccc1Cl)CCCCC2)c1ccccc1F
    0.93 | .
- Cn1c(=O)c2c(nc3n2CC(C(C)(C)C)=NN3Cc2cccc3ccccc23)n(C)c1=O
    . | -0.6
- C=CCN(C(=O)c1ccc(Cl)cc1)c1ccccc1C(=O)NCC(=O)O
    -0.4 | -0.55
- O=C(O)Cn1c2ccc(Br)cc2c2nc3ccccc3nc21
    -1.5 | -0.55
- C=CCNC(=O)CSc1nc2cc(C)cc(C)c2cc1C#N
    . | 0.5
- O=C(CSC1=NS(=O)(=O)c2ccccc2N1)N1CCCc2ccccc21
    . | 0.3
- CCOc1ccc(NC(=O)CCC(=O)O)cc1
    -0.2 | -0.55
- COc1cc2c(C(=O)N3CCN(c4ccccc4)CC3)cn(CC(C)C)c(=O)c2cc1OC
    -1.1 | -0.4
- CCC(C)NC(=O)c1ccc2c(c1)nc(C)n2-c1ccc(Br)cc1 (centres undefined)
    0.41 | .
- CCOc1ccc(-n2c(-c3ccco3)nc3c(cnn3-c3ccc(C)cc3)c2=O)cc1
    1.3 | 0.65
- N#C/C(C(=S)Nc1ccccc1)=C(/N)N1CCN(c2ccccc2)CC1
    -0.96 | .
- CCc1ccccc1NC(=O)C1CCN(c2nn3cc(-c4ccc(C)cc4)nc3s2)CC1
    -0.43 | 0.35
- Cc1ccccc1Nc1cc(N2CCCC2)c2nonc2c1[N+](=O)[O-]
    -0.56 | .
- CCOC(=O)c1cnn(-c2ccccc2)c1NC(=O)C(F)(F)F
    0.55 | -0.7
- CCCc1[nH]nc2c1C(CCC)C(C#N)=C(N)O2 (centres undefined)
    . | -0.4
- CCN(CC)CCNC(=O)c1ccc(Cn2c(=S)[nH]c3ccc(Br)cc3c2=O)cc1
    -0.85 | .
- CCCCNC(=O)NS(=O)(=O)c1ccc(C)cc1
    0.54&-0.1 | .
- Cc1nc2sc(C(c3ccco3)N3CCN(C(=O)c4ccco4)CC3)c(O)n2n1 (centres undefined)
    -0.1 | 0.95
- CN1C(C(=O)NC2CCCCC2)=CC(c2ccc(F)cc2)=NS1(=O)=O
    0.27 | -0.35
- CNC(=O)c1nnc(-c2ccccc2)o1
    -0.09 | -1
- CC(=O)c1ccc(S(=O)(=O)NC2CCN(Cc3cc4c(cc3Cl)OCO4)C2)cc1 (centres undefined)
    -0.5 | .
- CCCCN(C)S(=O)(=O)c1cc(-c2nn(C)c(=O)c3ccccc23)ccc1C
    -0.07 | 1.6
- CN(C)c1ccc(C(=S)N2CCN(C(N)=S)CC2)cc1
    . | -0.6
- CC(=O)N1CCC(N(C(=O)CSCCNC(=O)c2ccc(C(F)(F)F)cc2)C2CC2)CC1
    -0.61 | .
- COc1ccc(Oc2coc3cc(OC(=O)c4cc(OC)c(OC)c(OC)c4)ccc3c2=O)cc1
    -0.24 | .
- CCNc1cc(NCC)c2noc3c2c1C(=O)c1ccccc1-3
    -1.6 | 1.3
- CCC(=O)N(CCN1C(=O)c2ccccc2C1=O)c1cccc(F)c1
    . | 0.05
- Cc1ccc2c(c1)-c1c(ssc1=S)C(C)(C)N2C(=O)CN1CCOCC1
    . | -0.7
- COC(=O)c1ccc(/C=C2/SC(=S)N(CCC(=O)N(Cc3ccccc3)C(C)(C)C)C2=O)cc1
    -0.38 | -0.1
- Cn1c(SCC(=O)Nc2ccc3nc(SCC(=O)N4CCOCC4)sc3c2)nnc1-c1ccccc1
    -0.085 | .
- CSc1nnc2c(n1)OC(c1c[nH]c3ccccc13)Nc1ccccc1-2 (centres undefined)
    -0.56 | .
- CN[C@@H]1[C@H](O[C@H]2[C@H](O[C@@H]3[C@@H](O)[C@H](O)[C@@H](N=C(N)N)[C@H](O)[C@H]3N=C(N)N)O[C@@H](C)[C@]2(O)CO)O[C@@H](CO)[C@H](O)[C@H]1O
    -1.2 | .
- CC(NC(=O)Nc1cccc2ccccc12)C1CCCO1 (centres undefined)
    16 | -0.35
- COc1ccc(OCC(=O)NC(=S)N2CCCc3ccccc32)cc1
    -0.085 | -0.4
- COCCNC(=O)CCC(=O)N1CCN(c2nc(C)cc(C)n2)CC1
    1.2 | .
- O=C1NC(=O)C(=Cc2cc(Cl)c(OC(=O)c3ccccc3)c(Cl)c2)C(=O)N1
    -0.12 | .
- CC1CN=C(SCc2ccccc2)N1 (centres undefined)
    -0.22 | -0.8
- Cc1cc(C(=O)NNc2c(Cl)cc(Cl)cc2Cl)nn1C
    -0.12 | 1.4
- CCOC(=O)c1c(N)nn(C(=O)CC)c1-c1ccccc1
    0.35 | -0.7
- Cc1ccc2nc(NC(=O)OC(C)(C)C)sc2c1
    2.4 | 0.25
- COC(=O)c1ccc2c(=O)n(CCc3ccc(S(N)(=O)=O)cc3)c(SCC(=O)Nc3ccccc3OC)nc2c1
    -1.1 | .
- CCCCSc1nc2c(c(=O)n1C1CCOC(C)(C)C1)C1(CCCC1)Cc1ccccc1-2 (centres undefined)
    -0.66 | .
- CCC(Sc1nncn1C)C(=O)Nc1cc(C)on1 (centres undefined)
    0.05 | .
- Cc1ccc(NC2=NC(C(=O)Nc3ccc(F)c(Cl)c3)CC(=O)N2)cc1 (centres undefined)
    -1.7 | 2

# The listing continues:
Molecule | CapD inh | AID504770
O=S(=O)(NCCN1CCCC1)c1ccc(Cl)cc1 | 0.06 | 2
CC(C)NC(=O)c1nnc(Cc2cccc(Cl)c2)o1 | -0.36 | 1.3
Clc1cc2nc(-c3ccccc3)c(-c3ccccc3)nc2cc1Cl | -0.15 | .
Cc1cc(C=C2C(=O)c3ccccc3C2=O)c(C)n1C | -0.12 | -1.1
Cc1ccc(N2C(=O)C(=O)/C(=C(\O)c3ccccc3)C2c2ccc(N(C)C)cc2)cc1 (centres undefined) | -0.75 | .
COc1ccc(C(=O)N/N=C/c2ccc([N+](=O)[O-])cc2)cc1OC | -3.4 | .
Cc1nnc(SCC(=O)Nc2nc(-c3ccc(Br)cc3)cs2)[nH]c1=O | 0.24 | 0.2
Oc1cccc2cnccc12 | 0.69 | -0.4
Cc1nn(-c2ccccc2)c2sc(C(=O)OC3CCCC3=O)cc12 (centres undefined) | . | 0.65
COc1ccc(C)cc1S(=O)(=O)N(C)C1CCN(Cc2cc3ccccc3o2)C1 (centres undefined) | 0.29 | .
CCCCN(C)S(=O)(=O)c1ccc2c(c1)oc(=O)n2C | 5.3 | 1.4
O=C1N(Cc2ccccc2)C(c2ccco2)C1(F)F (centres undefined) | . | 0.15
Cc1cc2cc(CNC(=O)CCc3ccccc3)ccc2n1C | 0.45 | 0.4
O=C(OCCOc1ccc(Br)cc1)c1ccc(Cl)nc1 | . | -1.8
Cc1[nH]c(-c2ccc(F)cc2)cc1C(=O)N(C)Cc1ccco1 | -0.2 | -0.45
Cc1cc(OCC(=O)Nc2ccc3c(c2)C(=O)c2ccccc2C3=O)cc(C)c1Cl | -0.55 | .
OCC1Cc2ccccc2CN1 (centres undefined) | . | -0.4
Cc1nn(-c2ccc(F)cc2)c(-n2cccc2)c1C(=O)NCCN1CCOCC1 | -1.2 | -1.2
CCOc1ccccc1N(C)S(=O)(=O)c1ccc2[nH]cc(C(=O)N3CCc4ccccc43)c(=O)c2c1 | 0.015 | .
O=C(O)c1cccc(N=NN2CCOCC2)c1 | . | -0.7

# In a second layout: 3 of the compounds above
structure: Cc1nn(-c2ccccc2)c2sc(C(=O)OC3CCCC3=O)cc12 (centres undefined)
  CapD inh: .	AID504770: 0.65

structure: OCC1Cc2ccccc2CN1 (centres undefined)
  CapD inh: .	AID504770: -0.4

structure: Cc1[nH]c(-c2ccc(F)cc2)cc1C(=O)N(C)Cc1ccco1
  CapD inh: -0.2	AID504770: -0.45

# Among those listed so far, these have a nitro group on carbon.
Molecule | CapD inh | AID504770
COC(=O)c1c(C)oc2ccc(N(C(=O)c3ccccc3)S(=O)(=O)c3cccc([N+](=O)[O-])c3)cc12 | -0.26 | .
O=C(COC(=O)c1cccc(N2C(=O)C3C4C=CC(C4)C3C2=O)c1)c1cccc([N+](=O)[O-])c1 (centres undefined) | -0.93 | .
Cc1ccccc1Nc1cc(N2CCCC2)c2nonc2c1[N+](=O)[O-] | -0.56 | .
COc1ccc(C(=O)N/N=C/c2ccc([N+](=O)[O-])cc2)cc1OC | -3.4 | .

# Going on with the list.
Molecule | CapD inh | AID504770
Cc1cc(C)nc(N2CCN(S(=O)(=O)c3cccc(C(F)(F)F)c3)CC2)n1 | -0.4 | .
O=C(Nc1ccc2sccc2c1)c1cccs1 | -0.22 | -1.2
Nc1nc(=S)[nH]c2c1C1(CCCC1)Cc1ccccc1-2 | . | 2
O=C(CNC(=O)c1ccccc1)OCc1c(Cl)cccc1Cl | -0.08 | 0.9
Clc1nc(NCc2ccco2)nc(Nc2ccc3c(c2)OCO3)n1 | -0.13 | .
C=CC1CCC(N(Cc2ccccc2)S(=O)(=O)c2ccc(C)cc2)C(O)C1 (centres undefined) | 0.07 | -1.1
Cc1[nH]c2ccccc2c1C1c2cc([N+](=O)[O-])ccc2OC2(N3CCOCC3)CCCCC12 (centres undefined) | -0.18 | .
CCc1ccc(NC(=O)N2CCC(CN3CCc4ccccc4C3)CC2)cc1 | -1.7 | 1.1
Cc1ccc(NC(=O)C2COc3ccccc3O2)c(C)c1 (centres undefined) | 0 | .
CC(C)NC(=O)Oc1noc2ccccc12 | -0.99 | -0.4
Cc1nn2cc(-c3ccccc3)nc2[nH]c1=O | 12 | .
N#CCCN1C(=O)NC(Cc2ccccc2)(c2ccccc2)C1=O (centres undefined) | . | -0.8
O=C(Nc1cccnc1Cl)c1cnn2c(C(F)(F)F)cc(-c3ccc(Br)cc3)nc12 | -0.71 | .
O=C1/C(=C/c2ccc(O)cc2)NC(=S)N1c1ccccc1 | -2.7 | -0.95
CC(C)Cc1cc(C(=O)NC(C)C)no1 | -0.46 | -0.5
Cc1cc(C)nc(Nc2ccc(Nc3ccccc3)cc2)n1 | -2 | 0.2
CCC(=O)Nc1ccc(Cl)c(NC(=O)c2cc3ccccc3o2)c1 | . | 0.55
CC(=O)Nc1ccc(SC(F)(F)F)cc1 | 0.01 | 0.6
Cc1ccc(-c2n[nH]c3c2C(c2cccc([N+](=O)[O-])c2)N(c2ccc(F)cc2)C3=O)cc1 (centres undefined) | -0.83 | .
CCc1ccccc1-n1nnnc1-c1cnccc1C(F)(F)F | -0.47 | -0.65
CCOC(=O)c1sc(NS(=O)(=O)c2ccccc2C(F)(F)F)cc1C | . | -0.4
COc1ccc(-c2nc(C)c(CCNS(=O)(=O)N(C)C)s2)cc1 | -0.3 | -0.55
O=C(O)/C=C/c1ccc2c(c1)OC(F)(F)O2 | -0.27 | .
O=S(=O)(c1cccc2ccccc12)n1nnc2ccccc21 | 5.9 | .
CN(C(=O)c1ccco1)C1(c2ccccc2Cl)CCCCC1=O (centres undefined) | . | -0.35
CC1CCc2cc(F)ccc2N1C(=O)c1ccc(N2CC3CC(C2)c2cccc(=O)n2C3)c(NC(=O)c2ccncc2)c1 (centres undefined) | -0.24 | .
CCc1nnc2c3ccccc3nc(NCc3cccnc3)n12 | 6.6 | -0.75
CCCn1c(SCc2nc(-c3cccs3)no2)nnc1-c1ccncc1 | -0.27 | -1.1
O=C(c1ccc2c(c1)OCCO2)N1CCN(c2ccc([N+](=O)[O-])cc2Cl)CC1 | -0.31 | .
O=C1C(=O)N(Cc2ccccc2Cl)C(=O)N1Cc1ccc([N+](=O)[O-])cc1 | -0.21 | .
Cc1cc(Br)ccc1NC(=S)Nc1cccc(NC(=O)c2ccccc2O)c1 | 6.2 | -0.65
O=C1CCC(c2ccccc2)CC1 | -1 | -0.85
CC(CCCC(C)(C)O)CC1OCC(C)O1 (centres undefined) | -0.07 | 0.85
O=C(Cn1[nH]c(=O)c2ccccc2c1=O)N1CCc2ccccc2C1 | . | 0.15
FC(F)(F)Oc1ccc(N=Cc2cccs2)cc1 | -0.67 | -1.3
O=C(O)CCc1nc2cc3ccccc3cc2[nH]1 | . | -0.5
Cn1c(=O)[nH]c(=O)c2c1nc(CN1CCOCC1)n2CCCc1ccccc1 | -0.51 | -0.5
